# Assay outcomes deposited in PubChem by several laboratories.
# eIF4H inh: human eIF4H binding inhibitors, primary screen, translation initiation inhibitor project, biochemical, uHTS, fluorescence polarization. hit rate 0.94% among 290,000. eIF4H fluorescence polarization binding assay. inhibition, % at 35 µM;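 active = 50% or more with normal probe brightness, or confirmed in later tests; inconclusive = above 50% with abnormal brightness, or retests that disagree; inactive = below 50% or failed in later tests; about a fifth of its hits are not listed in these tables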;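 note: calls also rest on retests at 20 µM and on dose response follow-up; 0% = protein and probe with vehicle and 100% = probe without protein; strong numbers were not always called active; many hits fall short of the cut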
# PABP polyA inh: PABP poly(A) RNA binding inhibitors, primary screen, biochemical, fluorescence polarization, uHTS; Polyadenylate-binding protein 1 (Homo sapiens), P11940; inhibition, % at 35 µM; hit rate 1% among 290,000; AID 2014, 2009;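 active = 50% or more with normal probe brightness, or confirmed in later tests; inconclusive = above 50% with abnormal brightness, or retests that disagree; inactive = below 50% or failed in later tests; about a fifth of its hits are not listed in these tables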;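 note: calls also rest on retests at 20 µM and on dose response follow-up; controls were probe without protein and protein plus probe with vehicle; some compounds called inactive have numbers as strong as hits; many hits fall short of the cut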
# Target sequence (P11940 whole entry, looked up): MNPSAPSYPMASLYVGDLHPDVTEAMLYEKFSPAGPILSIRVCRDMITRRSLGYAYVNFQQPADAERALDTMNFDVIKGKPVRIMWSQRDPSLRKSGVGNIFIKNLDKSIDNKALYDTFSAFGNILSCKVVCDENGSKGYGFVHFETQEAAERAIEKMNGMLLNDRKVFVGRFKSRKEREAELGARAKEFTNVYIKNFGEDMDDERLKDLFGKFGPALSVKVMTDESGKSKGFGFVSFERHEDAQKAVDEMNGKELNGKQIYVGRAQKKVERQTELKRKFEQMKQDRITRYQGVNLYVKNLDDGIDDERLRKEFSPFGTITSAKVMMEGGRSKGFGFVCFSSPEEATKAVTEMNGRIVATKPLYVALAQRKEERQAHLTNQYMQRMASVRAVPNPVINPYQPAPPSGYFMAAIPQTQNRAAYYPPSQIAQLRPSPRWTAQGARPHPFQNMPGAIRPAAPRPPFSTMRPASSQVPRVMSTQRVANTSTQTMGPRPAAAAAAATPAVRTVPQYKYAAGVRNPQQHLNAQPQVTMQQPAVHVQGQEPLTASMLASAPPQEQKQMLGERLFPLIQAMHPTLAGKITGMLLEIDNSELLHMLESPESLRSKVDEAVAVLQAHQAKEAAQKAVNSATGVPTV
# Env fusion inh: inhibitors of HIV-1 Env-driven cell-cell fusion, primary screen, HeLa-JRFL effector, CEM21 target cells, luciferase | hit rate 1.1% among 360,000 | inhibition, % at 12.3 µM;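 active = mean replicate inhibition score of at least 50 and every replicate individually at or above 50; inconclusive = only one of the two criteria met; inactive = mean below 50 and not all replicates reaching 50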;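 note: 0% = plate neutral controls and 100% = maraviroc near 300 nM; one replicate is shown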
# CSC inhib: cancer stem cell viability inhibitors, primary screen, luminescence | inhibition, % at 7.5 µM | AID 2717, 2010 | hit rate 1.1% among 300,000 | cancer stem cell-like cells viability;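 active = mean at 75% or more and at least half the replicates too; inconclusive = mean and replicates disagree; tested in HMLE shEcad cells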;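 note: 0% = median of negative and 100% = median of positive control wells; the first replicate is given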
# Rce1 inhib: yeast Rce1p protease inhibitors, primary screen, biochemical, fluorescence, cell-free homogeneous; CAAX prenyl protease 2 (Saccharomyces cerevisiae (strain ATCC 204508 / S288c)), Q03530; yeast membranes, quenched prenylated peptide cleavage fluorescence; calls only; hit rate 0.27% among 290,000; AID 2563, 2010;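 active = fall in fluorescence gain of 50% or more versus controls, with final raw signal at or below 3038400; inconclusive = same 50% fall but final raw signal above 3038400; inactive = fall in fluorescence gain under 50%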;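 note: plate controls were neutral control wells for no effect and wells lacking membranes for full effect; tested at 10 µM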
# Target sequence (Q03530 whole entry, looked up): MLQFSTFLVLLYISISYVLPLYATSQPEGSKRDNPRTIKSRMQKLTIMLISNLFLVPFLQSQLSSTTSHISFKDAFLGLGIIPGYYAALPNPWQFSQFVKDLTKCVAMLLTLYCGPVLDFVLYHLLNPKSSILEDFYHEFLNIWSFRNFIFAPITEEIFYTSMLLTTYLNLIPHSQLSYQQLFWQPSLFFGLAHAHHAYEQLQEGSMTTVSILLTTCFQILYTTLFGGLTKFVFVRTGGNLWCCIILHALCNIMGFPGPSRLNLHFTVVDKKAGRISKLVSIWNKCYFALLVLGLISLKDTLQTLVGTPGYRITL
# Yeast UUG start: modulators of yeast start codon fidelity, primary screen, whole organism, S. cerevisiae, single point, plate reader | activity score, % at 18.7 µM | S. cerevisiae UUG-firefly luciferase reporter, luminescence/redox ratio | hit rate 0.13% among 350,000 | AID 602363, 2012;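 active = replicate mean at a twofold rise or more, about +100% in these data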;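 note: firefly luciferase made from a UUG start codon reports start codon fidelity; reporter light over untreated wells divided by growth signal over untreated wells; some hits fall short of that in this replicate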
# MT1-MMP act inh: blockers of MT1-MMP proenzyme processing, primary screen, HT1080 RFP-PRO-GFP cells, GFP/RFP fluorescence. GFP/RFP ratio change, % at 20 µM. hit rate 0.061% among 360,000. AID 651647, 2012. GFP/RFP ratio fluorescence, overnight; percent of plate control window, DMSO zero;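 active = GFP/RFP ratio change of at least 30% with cell ATP level not reduced by more than half and red fluorescence within 50% of control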; note: strong numbers were not always called active
#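 Assay system: HT1080 RFP-PRO-GFP cells | Dosing: 20 µM single dose, 1% DMSO | Incubation: Cells overnight before dosing, compound overnight, 37 °C, 5% CO2 | Evaluation: GFP/RFP fluorescence ratio | Control set: DMSO-only wells and HT1080 RFP-L50D-GFP cell wells as references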
# eIF4H inh retest: second read-out of eIF4H inh, no call of its own (marks repeat the call); inhibition, %; compound at 20 µM; confirmation average;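 mean of two retest wells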
# PABP polyA inh retest: further read-out of PABP polyA inh, marked with its call; inhibition, %; compound at 20 µM; confirmation repeats;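 mean of two retest wells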
# MT1-MMP act inh RFP: recorded beside MT1-MMP act inh, whose call it bears; RFP signal change, %; measured here: RFP expression control read;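 0 = vehicle wells; hits needed this value within 50% of zero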
# An asterisk follows results filed as active; i = inactive; ? = inconclusive; . = not tested or not shown. Only part of the results is shown; count on the stated rates, not on these rows.
# Sample of the layout (five entries):
SMILES,eIF4H inh,PABP polyA inh,Env fusion inh,CSC inhib,Rce1 inhib,Yeast UUG start,MT1-MMP act inh,MT1-MMP act inh RFP,others
CCCCOc1ccc(C(=O)OC(C)CN(C)C)cc1 (stereo unspecified),-2,4,-6,62,i,-9,1,4,
Cc1ccccc1S(=O)(=O)NC(=O)C1(C)CCN1C(=O)CC1CCCC1 (stereo unspecified),.,.,-7,.,.,-16,-3,4,
N#C/C(=C\c1ccccc1)C(=O)NC(=O)Oc1ccccc1,3,0,.,4,i,.,-7,3,
CCN(CC)CCCN1C(=O)C(O)=C(C(=O)c2cc3cccc(OC)c3o2)C1c1ccncc1 (stereo unspecified),-2,4,-9,.,i,-5,-8,1,
O=C(Nc1ccncc1)c1cccc(S(=O)(=O)N2CCOCC2)c1,.,.,.,23,i,.,-3,-6,

# Results, from the start:
SMILES,eIF4H inh,PABP polyA inh,Env fusion inh,CSC inhib,Rce1 inhib,Yeast UUG start,MT1-MMP act inh,MT1-MMP act inh RFP,others
CCCCOc1ccc(C(=O)OC(C)CN(C)C)cc1 (stereo unspecified),-2,4,-6,62,i,-9,1,4,
Cc1ccccc1S(=O)(=O)NC(=O)C1(C)CCN1C(=O)CC1CCCC1 (stereo unspecified),.,.,-7,.,.,-16,-3,4,
N#C/C(=C\c1ccccc1)C(=O)NC(=O)Oc1ccccc1,3,0,.,4,i,.,-7,3,
CCN(CC)CCCN1C(=O)C(O)=C(C(=O)c2cc3cccc(OC)c3o2)C1c1ccncc1 (stereo unspecified),-2,4,-9,.,i,-5,-8,1,
O=C(Nc1ccncc1)c1cccc(S(=O)(=O)N2CCOCC2)c1,.,.,.,23,i,.,-3,-6,
CCOC(=O)c1nc(N/N=C/c2ccccc2)sc1Br,-6,5,-5,0,i,-25,3,-8,
CCOC(=O)C1=C(c2ccccc2)NC(=O)NC1c1cc(OC)c(O)c([N+](=O)[O-])c1 (stereo unspecified),-3,1,9,-18,i,-1,4,-3,
COc1ccccc1NC(=O)CCC(=O)c1ccc(-c2ccccc2)cc1,-15,-7,-1,1,i,.,-3,0,
Cc1cc(OCCCC(=O)Nc2cccc(-n3cnnn3)c2)ccc1Cl,-11,3,5,1,i,-10,3,-9,
CNC(=O)Cn1c(C)cc(=O)c2cccc(C)c21,-4,-8,-7,7,i,-18,-2,-3,
Cc1ccc(C(=O)O)cc1S(=O)(=O)N1CCOCC1,0,4,-35,-12,i,-15,-4,1,
CCCOC(=O)Nc1sc2c(c1C(N)=O)CCCC2,-5,0,-33,-18,i,.,0,-4,
COC(=O)Cc1c(C)c2ccc(OC(C)C)cc2oc1=O,7,-8,-13,-8,i,-11,0,-7,
Cc1cccc(NC(=O)CSc2nc(=O)n(CCN3CCOCC3)c3c2CCCC3)c1C,.,.,11,-13,i,2,2,-1,
COC(C(=O)Nc1ccc(NC(=O)C(OC)c2ccccc2)cc1)c1ccccc1 (stereo unspecified),-2,7,6,-9,i,-12,1,4,
CCOc1cccc(C(=O)Nc2ccc3oc(Cc4ccc(Cl)cc4)nc3c2)c1,-8,-2,.,51,i,-5,10,-11,
CCCCCCSc1cccc(-c2nc3ccc(C)cn3c2NCc2ccccc2)c1,.,.,11,80*,i,-20,1,-4,
O=C(COc1ccc(Cl)cc1[N+](=O)[O-])N1CCCCCC1,5,-3,2,-17,i,-1,0,0,
COC(=O)CN1C(c2ccc(OC)cc2)=Nc2ccc(Cl)cc2C1c1ccccc1 (stereo unspecified),8,19,1,-9,i,.,-18,-18,
COCCN1C(=O)C(=O)/C(=C(/O)c2ccc(S(=O)(=O)N3CCOCC3)cc2)C1c1ccc(O)cc1 (stereo unspecified),3,7,9,13,i,-10,-1,-2,
Cc1c(O)ccc2c(CN3CCN(CCO)CC3)cc(=O)oc12,6,-2,-11,-9,i,.,-8,1,
COc1ccccc1N(CN1C(=O)c2ccccc2C1=O)C(=O)c1cccnc1,4,8,-2,-5,i,2,-4,-1,
COCCNC(=O)CN(C(=O)Cn1nnc2ccccc21)c1ccc(F)c(Cl)c1,-7,14,.,0,i,-14,1,-1,
O=C1NC(C2CC3C=CC2C3)Nc2ccccc21 (stereo unspecified),.,.,1,.,.,-10,7,-8,
C=CCn1c(=O)c(C(=O)Nc2ccccc2S(N)(=O)=O)c(O)c2ccccc21,3,21,-10,7,i,-11,-3,-2,
CCC12CN(C(=O)c3ccco3)CC(CC)(CN(C(=O)c3ccco3)C1)C2=O,0,-4,-9,-3,i,-7,5,3,
CCOC(=O)c1c2c3c(c(Cl)ccc3[nH]c1=O)C(=O)c1ccccc1-2,6,-1,-2,.,i,.,44*,32*,
CC1CCCCN1C(=O)COc1ccc2ccc(=O)oc2c1 (stereo unspecified),-6,7,0,-4,i,.,2,10,
O=C(NC1CCCCC1)c1ccc2ccccc2c1O,.,.,-140,.,.,-13,5,6,
COc1ccc(CNC(=O)C(=O)NCCC2CCCCN2S(=O)(=O)c2cccs2)cc1 (stereo unspecified),.,.,.,-17,i,-7,-4,-9,
CCSc1nnc(NC(=O)c2cc(C)oc2C)s1,-9,-4,-109,16,i,-9,2,-4,
Cc1nn(Cc2c(F)cccc2Cl)c(C)c1NC(=O)C1CC1,-10,1,7,13,i,.,2,5,
CC(C(=O)NC1CCS(=O)(=O)C1)N1C(=O)/C(=C/c2ccc(Cl)cc2)SC1=S (stereo unspecified),-3,10,-6,-7,i,15,0,3,
O=C(Cn1cc2c(n1)CCCC2)Nc1ccccc1Cl,-15,-11,0,-13,i,-14,9,2,
COC(=O)c1ccccc1NC(=O)CSc1nc2cccnc2n1C,-5,7,-2,0,i,.,1,-1,
C=CCn1c(Cc2cccs2)nnc1SCC(=O)Nc1ccc(C(=O)OCC)cc1,-9,-6,-5,4,i,-1,2,-2,
COc1cccc(C2C(C#N)=C(N)Oc3cc(C)[nH]c(=O)c32)c1OC (stereo unspecified),-9,2,.,-4,i,5,-8,-1,
COc1cc(OC)c(N(C)S(=O)(=O)c2cccc(C(=O)NCc3cccs3)c2)cc1Cl,.,.,-150,.,.,-5,-2,-3,
CCn1cc(/C=C(\NC(=O)c2ccccc2OC)C(=O)NCCCN2CCOCC2)c2ccccc21,-8,-5,-7,5,i,.,-2,-4,
COc1cc([N+](=O)[O-])cc(/C=N/NC(=O)c2cc(-c3ccccc3)nc3ccccc23)c1O,4,-5,3,56,i,-7,.,.,
CCOc1ccc2nc(SCC(=O)Nc3ccc4c(c3)OCCO4)[nH]c2c1,-3,6,-23,-8,i,15,-3,-3,
O=c1c(-c2ccc(Cl)cc2)[n+]([O-])c2ccccc2n1O,16,34,.,-1,i,.,-6,7,
Cc1cc(NC(=O)C2CCCCC2)n(-c2nc3ccccc3[nH]2)n1,10,1,.,30,i,.,-4,-10,
CC(C)(C)SCCSC1=CC(=O)CC(c2ccccc2)C1 (stereo unspecified),-2,-3,1,31,i,-14,0,-3,
C/C(=N\Nc1ccc(F)cc1F)c1ccc(N2CCOCC2)cc1,5,37,-9,1,i,.,-2,1,
CCOc1ccc(Nc2ccc(N3C(=O)CCC3=O)cc2[N+](=O)[O-])cc1,-4,5,8,2,i,-9,8,3,
O=C1CCN(CCCc2ccccc2)CCN1[C@H](CO)c1ccccc1,-4,-2,5,-7,i,-5,2,2,
Cc1ccc2[nH]c(=O)c3cc(C(=O)N(C)c4ccc(C)c(C)c4)sc3c2c1,-7,-4,-12,27,i,.,-12,-6,
Clc1ccc(C2=NNC(=NCc3ccccc3)SC2)cc1,11,-4,-14,2,i,.,0,-4,
CC1CCCC(C)N1/N=C/c1cc(Br)cc(Br)c1O (stereo unspecified),-7,-2,-4,7,i,-6,0,3,
Cc1ccc(C(=O)COC(=O)c2ccc(Cl)c(N)c2)s1,.,.,-17,.,.,-16,-1,-4,
COc1ccc(-n2c3c(c(=O)[nH]c2=O)C(NS(=O)(=O)c2ccc(Cl)cc2)(C(F)(F)F)C(=O)N3)cc1 (stereo unspecified),1,-10,-1,3,i,-6,-2,-1,
O=C(CCCCCn1c(=O)[nH]c2ccsc2c1=O)NCc1cccs1,-10,1,-52,-2,i,-14,3,1,
CS(=O)(=O)Cc1ccc(C(=O)Nc2cccc(-c3nc4ccccc4[nH]3)c2)cc1,0,4,-43,-4,i,-8,4,-2,
CC(C)(C)n1nc2c(c1NC(=O)Cc1ccc(F)cc1)CSC2,0,0,0,14,i,-28,1,0,
C=CCNC(=O)CCCc1ccccc1,5,7,-73,.,i,-10,-1,2,
CN1/C(=C\C=C(C#N)C#N)C(C)(C)c2ccccc21,133,52,7,-7,i,-15,-88,11,eIF4H inh retest=8;PABP polyA inh retest=7
O=C(CC1C(=O)NCCN1Cc1c(F)cccc1Cl)NCCCn1cccn1 (stereo unspecified),-5,7,11,-10,i,-28,-7,0,
CN1CCN(C(=O)C[C@H]2CC[C@H]3[C@@H](COC[C@@H](O)CN3Cc3cccc(F)c3)O2)CC1,.,.,?,.,.,-1,4,3,
COc1ccc(N2C(=O)C3CCCN3C2c2ccc(C)cc2)cc1 (stereo unspecified),5,-3,-12,-6,i,-19,-1,5,

# The listing continues.
SMILES,eIF4H inh,PABP polyA inh,Env fusion inh,CSC inhib,Rce1 inhib,Yeast UUG start,MT1-MMP act inh,MT1-MMP act inh RFP,others
CCOc1ccccc1COC(=O)c1cccc(-n2cnnn2)c1,-5,1,-71,-4,i,0,2,-2,
COc1ccc(C2C3=C(CCCC3=O)Nc3n[nH]c(C)c32)cc1OC (stereo unspecified),-14,-5,6,9,i,-15,-2,2,
COc1cccc(N2CC(=O)N(c3cccc(OC)c3)CC2=O)c1,-5,8,-12,-10,i,.,1,4,
CCCn1c(-c2cccs2)nc2ccccc21,-4,-3,.,29,i,-18,-8,-8,
CCN(CC)C(=O)Nc1ccccc1C,-5,-3,.,11,i,0,5,2,
Cc1c(C(=O)NCc2cccs2)oc2ccccc12,-8,5,-31,-7,i,.,-3,-3,
Cc1cc2oc(=O)cc(-c3cc4ccccc4o3)c2cc1O,.,.,-9,14,i,0,-5,-10,
CCOC(=O)C1CCCN(C(=O)c2ccc(CNS(=O)(=O)c3ccc(C)cc3)cc2)C1 (stereo unspecified),-9,-4,8,6,i,.,0,1,
O=C(c1ccccc1Cl)N1CCn2c1nc1ccccc12,3,8,0,-2,i,-29,-1,1,
COc1ccc(CN2C(=O)NC(C)(c3ccc(C)cc3)C2=O)cc1F (stereo unspecified),0,-2,12,-3,i,-10,-7,-5,
COc1cc(OC)c(CN2CCc3c([nH]c4ccccc34)C2)cc1Br,8,0,-31,67,i,-6,-27,-2,
CCOC(=O)CNC(=O)N(C)[C@H]1C[C@H]2c3[nH]c4ccccc4c3CCN2C(=O)[C@H]1[C@H](C)O,.,.,-27,.,.,-6,3,4,
O=C(COc1ccccc1)NCC(c1cccs1)N1CCOCC1 (stereo unspecified),10,-6,.,-7,i,-7,0,-2,
COc1ccc(NC(=O)C23CC4CC(C2)CC(c2ccccc2)(C4)C3)c(OC)c1,17,2,.,15,i,-20,-15,-6,
